Screening results: PubChem, Broad Institute
ID4 binder: binders of human ID4 protein; small molecule microarray, Flag-ID4 binding, fluorescence F/B; calls only; actives 1.2% (n = 31,000);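 active = spot signal over background at p below 0.07 in all four prints; compounds were printed on slides so no solution concentration is given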;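 also: a binder raises fluorescence above local background on the spot; about 2 pmol printed per array spot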
Target sequence (P47928 whole entry, looked up): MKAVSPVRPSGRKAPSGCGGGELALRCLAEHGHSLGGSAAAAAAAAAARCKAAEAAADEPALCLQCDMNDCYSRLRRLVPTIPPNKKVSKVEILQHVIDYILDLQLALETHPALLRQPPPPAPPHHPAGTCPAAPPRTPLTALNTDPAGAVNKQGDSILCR
Calls only; i = inactive. An excerpt (hit frequency here may not be typical).

SMILES	ID4 binder
C[C@@H]1CN([C@@H](C)CO)C(=O)c2cc(-c3ccccc3)cnc2O[C@@H]1CN(C)Cc1ccccn1	i
CS(=O)(=O)N(CC(=O)Nc1ccc(C(F)(F)F)cc1)c1cccc(Br)c1	i
Cn1c(SCC(=O)Nc2ccc(Oc3ccccc3)cc2)nnc1-c1ccccn1	i
CS(=O)(=O)N(CC(=O)Nc1ccc(Br)cc1F)c1cccc([N+](=O)[O-])c1	i
COC(=O)c1sc(N2C(=O)C(=O)C(C(=O)c3ccc(OC)c(C)c3)C2c2ccco2)nc1C (centres undefined)	i
CCn1c(SCC(=O)Nc2ccc(Cl)c(Cl)c2)nnc1-c1ccccc1C	i
NC(=O)C1CC(=O)N(c2ccc(OCC(=O)Nc3cc(Cl)cc(Cl)c3)cc2)C1 (centres undefined)	i
COC(=O)c1cc(S(=O)(=O)Nc2nn(C)c3ccccc23)oc1C	i
CCOC(=O)c1c(NC(=O)CN2CCOCC2)sc2c1CCCC2	i
C[C@H](CO)N1C[C@H](C)[C@H](CN(C)C(=O)c2ccccc2)Oc2ncc(C3=CCCC3)cc2C1=O	i
O=c1[nH]c(=O)n(Cc2c(Cl)cccc2Cl)cc1F	i
Cc1ccc(NC(=O)CSc2n[nH]c(CC(C)C)n2)cc1	i
O=C(CSc1nnc(-c2cccnc2)n1C1CCCCC1)Nc1ccc(Cl)cc1	i
C[C@@H]1CN([C@@H](C)CO)S(=O)(=O)c2ccc(-c3ccccc3F)cc2O[C@H]1CN(C)S(C)(=O)=O	i
Cc1ccc(S(=O)(=O)N[C@@H]2CC[C@H](CC(=O)NCCc3ccncc3)O[C@@H]2CO)cc1	i
O=C(CSC1CC(=O)N(c2ccccc2)C1=O)Nc1cccc(Cl)c1 (centres undefined)	i
C[C@@H]1CN([C@H](C)CO)C(=O)c2cc(C#CC3CCCC3)cnc2O[C@H]1CN(C)Cc1ccncc1	i
Cc1ccc(-c2cn3c4ccccc4nc3n2CCN2CCOCC2)cc1	i
O=c1cc(CSc2nc3sc4c(c3c(=O)n2Cc2ccco2)CCC4)[nH][nH]1	i
C[C@@H]1CN([C@H](C)CO)C(=O)c2cc(Br)cnc2O[C@H]1CN(C)Cc1cccc(F)c1	i
O=C(C[C@@H]1CC[C@H](NC(=O)NC2CCCCC2)[C@H](CO)O1)NCc1ccccc1	i
CN1CCN(C(=O)C[C@H]2C[C@@H]3c4cc(NS(C)(=O)=O)ccc4O[C@@H]3[C@@H](CO)O2)CC1	i
O=c1c(F)cn(CC2CC(c3ccccc3)=NO2)c(=O)n1CC1CC(c2ccccc2)=NO1 (centres undefined)	i
COc1ccccc1NC(=O)CCC(=O)c1ccc(C)cc1	i
COc1ccccc1-c1cnc2c(c1)C(=O)N([C@H](C)CO)C[C@@H](C)[C@H](CN(C)C)O2	i
COc1ccccc1CNC(=O)C[C@H]1C[C@@H]2c3cc(NC(=O)Nc4ccc(C(F)(F)F)cc4)ccc3O[C@@H]2[C@@H](CO)O1	i
C[C@H]1CN([C@@H](C)CO)S(=O)(=O)c2ccc(C#Cc3ccccc3F)cc2O[C@@H]1CN(C)C(=O)Cc1cccnc1	i
CCCc1ccc(S(=O)(=O)Nc2ccc(C)c(NS(C)(=O)=O)c2)cc1	i
COc1ccc(S(=O)(=O)N(C)CC(=O)Nc2ccc3c(c2)OCCO3)cc1Cl	i
C[C@H](CO)N1C[C@H](C)[C@H](CN(C)Cc2ccccc2)Oc2ncc(-c3ccccc3)cc2C1=O	i
COc1cccc(OCCCCSc2ncccn2)c1	i
C[C@H]1CN([C@@H](C)CO)C(=O)c2cc(C#CC3CC3)cnc2O[C@@H]1CN(C)Cc1ccccn1	i
CN(C)c1ccc2c(c1)[C@H]1C[C@H](CC(=O)NCc3ccc(Oc4ccccc4)cc3)O[C@@H](CO)[C@H]1O2	i
CS(=O)(=O)N(CC(=O)Nc1cc(Cl)ccc1Cl)c1ccc2c(c1)OCCO2	i
O=C(O)c1cccc(CSc2nnc(-c3ccncc3)o2)c1	i
CNC(=O)CN(c1ccc(C23CC4CC(CC(C4)C2)C3)cc1)S(C)(=O)=O	i
CSc1ccccc1NC(=O)C(C)NS(=O)(=O)c1ccc(C)cc1 (centres undefined)	i
Cn1c(SCC(=O)Nc2ccc(Cl)cc2)nnc1-c1ccc(Br)cc1	i
CS(=O)(=O)N(CC(=O)NC1CC2CCC1C2)c1ccc(Cl)c(C(F)(F)F)c1 (centres undefined)	i
CS(=O)(=O)N(CC(=O)Nc1cccc([N+](=O)[O-])c1)c1ccc(Br)cc1	i

In the list so far, three have an NH in an aromatic ring.
SMILES	ID4 binder
O=c1[nH]c(=O)n(Cc2c(Cl)cccc2Cl)cc1F	i
Cc1ccc(NC(=O)CSc2n[nH]c(CC(C)C)n2)cc1	i
O=c1cc(CSc2nc3sc4c(c3c(=O)n2Cc2ccco2)CCC4)[nH][nH]1	i

A draw from above in order of length of the SMILES, ascending:
SMILES	ID4 binder
O=c1[nH]c(=O)n(Cc2c(Cl)cccc2Cl)cc1F	i
CSc1ccccc1NC(=O)C(C)NS(=O)(=O)c1ccc(C)cc1 (centres undefined)	i
CS(=O)(=O)N(CC(=O)Nc1cc(Cl)ccc1Cl)c1ccc2c(c1)OCCO2	i
NC(=O)C1CC(=O)N(c2ccc(OCC(=O)Nc3cc(Cl)cc(Cl)c3)cc2)C1 (centres undefined)	i
COc1ccccc1-c1cnc2c(c1)C(=O)N([C@H](C)CO)C[C@@H](C)[C@H](CN(C)C)O2	i
C[C@@H]1CN([C@@H](C)CO)S(=O)(=O)c2ccc(-c3ccccc3F)cc2O[C@H]1CN(C)S(C)(=O)=O	i

(cont.)
SMILES	ID4 binder
Cc1ccc(C(O)COC2=NCNc3cc(Cl)ccc32)cc1 (centres undefined)	i
CC(=O)c1cccc(NC(=O)CSc2nc(-c3ccc(F)cc3)cs2)c1	i
COc1ccc(NC(=O)CNC(=O)c2ccccc2F)cc1Cl	i
CO[C@@H](CN(C)S(=O)(=O)c1cn(C)cn1)[C@H](C)CN(C(=O)Nc1ccc(C(F)(F)F)cc1)[C@@H](C)CO	i
O=C(C[C@@H]1CC[C@H](NC(=O)c2ccc(F)cc2)[C@@H](CO)O1)NCCc1ccccc1	i
Cc1cc(=O)[nH]c(SCC2COC3(CCCCC3)O2)n1 (centres undefined)	i
O=C(Cc1ccncc1)Nc1ccc2c(c1)[C@@H]1C[C@H](CC(=O)N3CCOCC3)O[C@H](CO)[C@@H]1O2	i
Cc1c(Cl)ccc2c(C(=O)NCCCn3nccc3C)cc(-c3ccccn3)nc12	i
CO[C@H]1O[C@H](CO)[C@@H](OC(=O)c2ccc(Br)cc2)[C@H](OC(=O)c2cc3ccccc3[nH]2)[C@H]1OC(=O)c1cc2ccccc2[nH]1	i
C[C@@H]1CN([C@@H](C)CO)C(=O)c2cc(C#Cc3ccccn3)cnc2O[C@H]1CN(C)CC1CCCC1	i
CC(=O)Nc1ccc(-c2nnc(SCC(=O)Nc3cc(Cl)cc(Cl)c3)n2C)cc1	i
O=C1C2=C(c3ccccc3)c3cc(F)ccc3C2Sc2ccccc21 (centres undefined)	i
CC(C)C#Cc1cnc2c(c1)C(=O)N([C@H](C)CO)C[C@H](C)[C@@H](CN(C)Cc1ccc3c(c1)OCO3)O2	i
COc1ccccc1-c1cnc2c(c1)C(=O)N([C@H](C)CO)C[C@@H](C)[C@@H](CN(C)Cc1ccccc1)O2	i
C[C@@H]1CN([C@H](C)CO)C(=O)c2cc(C#Cc3cccnc3)cnc2O[C@H]1CN(C)C	i
CCCN(C)C[C@@H]1Oc2cc(C#CC3CCCC3)ccc2S(=O)(=O)N([C@@H](C)CO)C[C@@H]1C	i
O=C(CNS(=O)(=O)c1ccccc1)Nc1ccc(I)cc1	i
CCN1CCN(C(=S)c2cc(I)c(OCC(=O)Nc3cccc(C)c3)c(OC)c2)CC1	i
CN1CCN(C(=O)CN(c2cc(C(F)(F)F)ccc2Cl)S(=O)(=O)c2ccccc2)CC1	i
NS(=O)(=O)c1ccc(NC(=O)CSc2nc3ccccc3[nH]2)cc1	i
COc1ccccc1NC(=O)C1CCCN(S(=O)(=O)c2cc(Cl)ccc2Cl)C1 (centres undefined)	i
COCC(=O)N1[C@H](CO)[C@H](c2ccc(-c3cccc(F)c3)cc2)[C@@H]1C#N	i
COC(=O)c1ccccc1NC(=O)C1CCN(S(=O)(=O)c2cc(OC)ccc2OC)CC1	i
CCCN(C)C[C@H]1Oc2cc(-c3cncnc3)ccc2S(=O)(=O)N([C@@H](C)CO)C[C@H]1C	i
C[C@@H]1CN([C@H](C)CO)C(=O)c2cc(Br)cnc2O[C@@H]1CN(C)C(=O)c1ccc(F)cc1	i
COc1ccc(C(=O)Nc2ccc(C(=O)NCc3ccco3)cc2)cc1	i
CC1=C(C(=O)Nc2ccccc2C)C(c2cccnc2)n2nc(CCCO)nc2N1 (centres undefined)	i
O=C(O)c1cc(NC(=O)C2CCCO2)cc(C(=O)O)c1 (centres undefined)	i
Cc1ccc(C)c(-c2csc(N)c2C#N)c1	i
CCCC#Cc1cnc2c(c1)C(=O)N([C@H](C)CO)C[C@@H](C)[C@H](CN(C)Cc1ccncc1)O2	i
O=C(CCN1C(=O)c2ccccc2S1(=O)=O)Nc1cccc(Cl)c1Cl	i
CC(=O)N[C@@H]1CC[C@H](CCNC(=O)C2CCCC2)O[C@@H]1CO	i
Cn1c(=O)c2c(nc(NCCN)n2C)n(C)c1=O	i
O=C(O)CCC(=O)Nc1ccc(Br)cc1C(=O)c1ccc(Cl)cc1	i
COc1cccc(C(=O)NC(c2ccc(Cl)cc2)c2c(O)ccc3ccccc23)c1 (centres undefined)	i
CN(C)C(=O)C[C@@H]1C=C[C@H](NC(=O)C2CCC2)[C@@H](CO)O1	i
O=C(NCc1cc2ccccc2s1)C1CN(C(c2ccccc2)c2ccccc2)C1	i
O=C(Nc1ccccc1C(=O)N1CCOCC1)c1noc2c1CCCC2	i
CC(=O)N(C)C[C@@H]1Oc2ncc(C#Cc3cccc(F)c3)cc2C(=O)N([C@@H](C)CO)C[C@H]1C	i
C[C@]12C=CC(=O)C=C1CC[C@H]1[C@@H]3C[C@@H](O)[C@](O)(C(=O)CO)[C@@]3(C)C[C@H](O)[C@@]12F	i
N#Cc1cccc(NCCN2CCNC2=O)n1	i
Cc1cc(C)nc(NC(=O)COc2ccc([N+](=O)[O-])cc2)n1	i
Cc1ccc(NC(=O)COc2ccc(Cl)cc2)cc1NC(=O)c1ccccc1	i
CCNC(=O)C[C@@H]1CC[C@H](NC(=O)C2CC2)[C@H](CO)O1	i
CC(=O)N(C)C[C@@H]1Oc2cc(-c3cccc(F)c3)ccc2S(=O)(=O)N([C@@H](C)CO)C[C@@H]1C	i
COc1ccc(C#Cc2ccc3c(c2)[C@]2(C(=O)N3)[C@H](C(=O)N3CCN(c4ncccn4)CC3)[C@H]3C(=O)O[C@H](c4ccccc4)[C@H](c4ccccc4)N3[C@@H]2c2ccc(O)cc2)cc1	i
C[C@H]1CN([C@@H](C)CO)S(=O)(=O)c2ccc(C#Cc3cccc(F)c3)cc2O[C@H]1CN(C)C	i
COc1ccccc1-c1cnc2c(c1)C(=O)N([C@H](C)CO)C[C@@H](C)[C@H](CN(C)Cc1ccncc1)O2	i
COCC(=O)N(C)C[C@@H]1Oc2cc(C3=CCCCC3)ccc2S(=O)(=O)N([C@H](C)CO)C[C@H]1C	i
O=C(CN1C(=O)C2C3C=CC(C4CC34)C2C1=O)Nc1ccc(Oc2ccc(Br)cc2)cc1 (centres undefined)	i
c1ccc(-n2c(SCc3nc4ccccc4[nH]3)nnc2-c2cnccn2)cc1	i
CCCNC(=O)N(C)C[C@@H]1Oc2cc(C#CC(C)C)ccc2S(=O)(=O)N([C@@H](C)CO)C[C@@H]1C	i
C[C@@H]1CN([C@H](C)CO)C(=O)c2cc(NC(=O)C3CC3)ccc2O[C@@H]1CN(C)CC1CC1	i
O=C(CSc1nc2ccccc2c(=O)[nH]1)Nc1ccccc1C(=O)c1ccccc1	i
CC(C)(C(=O)Oc1ccccc1)S(=O)(=O)c1ccc(C(F)(F)F)cn1	i
CC12CCC3c4ccc(OC(=O)c5ccccc5)cc4CCC3C1CCC2O (centres undefined)	i
CC(=O)N(C)C[C@H]1Oc2cc(-c3ccc(F)cc3)ccc2S(=O)(=O)N([C@@H](C)CO)C[C@H]1C	i
C[C@H](CO)N1C[C@H](C)[C@@H](CN(C)Cc2ccccc2C(=O)O)Oc2cc(-c3ccc(C(=O)N(C)C)cc3)ccc2S1(=O)=O	i
CC(C)C#Cc1ccc2c(c1)O[C@H](CN(C)CC1CCOCC1)[C@@H](C)CN([C@H](C)CO)S2(=O)=O	i
COc1ccc(C(=O)Nc2ccccc2C(=O)NCC2CCCO2)cc1 (centres undefined)	i

Five entries from above, as comma-separated lines.
SMILES,ID4 binder
c1ccc(-n2c(SCc3nc4ccccc4[nH]3)nnc2-c2cnccn2)cc1,i
CCCNC(=O)N(C)C[C@@H]1Oc2cc(C#CC(C)C)ccc2S(=O)(=O)N([C@@H](C)CO)C[C@@H]1C,i
C[C@@H]1CN([C@H](C)CO)C(=O)c2cc(NC(=O)C3CC3)ccc2O[C@@H]1CN(C)CC1CC1,i
O=C(CSc1nc2ccccc2c(=O)[nH]1)Nc1ccccc1C(=O)c1ccccc1,i
CC(C)(C(=O)Oc1ccccc1)S(=O)(=O)c1ccc(C(F)(F)F)cn1,i

Next records follow:
SMILES	ID4 binder
C[C@H](CO)N1C[C@H](C)[C@@H](CN(C)C(=O)c2ccc(F)cc2)Oc2ncc(C3=CCCCC3)cc2C1=O	i
COc1ccc(OC)c(S(=O)(=O)Nc2ccc(O)c3ccccc23)c1	i
COc1ccccc1OCC(=O)Nc1cc(C(=O)Nc2ccccc2C(=O)O)ccc1C	i
Cc1ccc2c(c1)c1nnc(SCCN3CCCCC3)nc1n2C	i
CCOc1ccc(C)cc1S(=O)(=O)NCc1ccco1	i
CNC[C@H]1Oc2cc(-c3ccccc3F)ccc2S(=O)(=O)N([C@@H](C)CO)C[C@H]1C	i
Cc1ccc(-c2ccc3c(c2)O[C@@H](CN(C)C)[C@H](C)CN([C@H](C)CO)S3(=O)=O)cc1	i
CCCN(C)C[C@@H]1Oc2ncc(-c3cccc(C(F)(F)F)c3)cc2C(=O)N([C@H](C)CO)C[C@@H]1C	i
